Assay outcomes from PubChem BioAssay.
Anthrax LT inh = anthrax lethal toxin internalization inhibition; Cells, anthrax lethal toxin internalization, FRET ratio (460/530); Potency, µM (highest dose often 40 µM), without a hit: at the top dose activity change, negative = inhibition, hits mostly inhibitors; 70,000 compounds, 0.67% hits; AID 912; active = well fitted falling ratio curve with the 530 nm signal flat; inconclusive = other ratio curves, or a change in one channel alone; inactive = flat curves in the ratio and both channels; the % refers to the ratio; note: % is set by controls: 0 for no effect and ±100 for the full control effect; nearly all actives have a fitted effect of over 50% in size; tested in ME-180 cells; beta-lactamase reporter
SmPrx2 inh = inhibitors of Schistosoma mansoni peroxiredoxin 2; Potency, µM; S. mansoni Prx2 activity coupled to TGR/GSH (TGR is thioredoxin glutathione reductase), NADPH fluorescence loss, qHTS; some inactives read as strong as hits; 65,000 compounds, 0.07% hits; active means full or partial inhibition curve with a strong effect at the top dose; inconclusive means weaker partial or single-point curve; inactive means no accepted curve; note: series up to 57 µM; many of its hits are not listed in these tables
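Prx2 inhibition was measured as reduced NADPH consumption when electrons flowed from NADPH through TGR and glutathione to Prx2 and H2O2. Plates were read kinetically over 8 min; enzyme reagents were held at 4 deg C during dispensing.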
* marks the source's active call; other numbers are inactive results; u = inconclusive; x = no result given; & = joins results of further samples; [ ] = another dose, or the depositor's remark. Potency is the fitted concentration of half-maximal effect. Not all compounds are listed. The share of hits here may be higher or lower than overall.

SMILES	Anthrax LT inh	SmPrx2 inh
COCCNc1nc(C)nc2c1nc(-c1ccccc1)n2CCCN1CCCCC1C (stereo not given)	15.1%	x
O=S(=O)(c1cccc(C(F)(F)F)c1)N1c2ccccc2-n2cccc2[C@H]1c1cccnc1	u	>57
Cc1onc(-c2ccccc2Cl)c1C(=O)N1CCN(C/C=C/c2ccccc2)CC1	-20.6%	x
O=C(CN(Cc1cccs1)C(=O)CSc1nnc(COc2ccccc2)o1)NC1CCCC1	7.6%	>57
COc1ccc2c(c1)c1ncn(CCN3CCCC3)c(=O)c1n2C	-27.9%	>57
COc1ccccc1NC(=O)C(C/C=C(\C)Cl)C(C)=O (stereo not given)	-13.2%	>57
COc1cc(O)c(C(=O)/C=C\c2ccc3c(c2)OCO3)c(OC)c1	-20.2%[8 µM]	x
Cc1ccc(NCc2nnc(SCC(=O)N(Cc3ccccc3)C(C)(C)C)o2)c(C)c1	u	x
Cc1ccc(NS(=O)(=O)c2ccc(NC(=O)C3CCCO3)cc2)cc1 (stereo not given)	u	>57
Cc1ccc(N2CC(C(=O)NCc3ccc4c(c3)OCO4)CC2=O)cc1C (stereo not given)	1.2%	>57
CCN(CC)c1ccc(C(=S)N2CCN(c3ccccc3)CC2)cc1	u	>57
CCC(=O)c1ccc(OCC(O)CN2C(=O)NC(C)(C)C2=O)cc1 (stereo not given)	-1.8%	>57
CCOC(=O)/C=C1\SCC(=O)N1CC(=O)NC1CCCCC1	10.2%	>57
CC1CCN(c2ccc(C(=O)O)cc2N)CC1	10.2%	>57
C=CCn1c(SCC(=O)c2cc(C)n(Cc3cccs3)c2C)nnc1-c1ccncc1	0.4%	>57
CCCN1C(=O)C2(C(C(=O)c3ccc(C)o3)=C(O)C(=O)N2CCCN2CCOCC2)c2ccccc21 (stereo not given)	4.6%	>57
COc1cc(Nc2nc(SCC#N)nc3ccccc23)cc(OC)c1OC	x	>57
CCOC(=O)Cc1csc(NC(=O)CSc2nnc(C(C)C)n2C)n1	7.1%	>57
CCc1ccccc1NC(=O)C(Cc1cccc(OC)c1OC)c1nn[nH]n1 (stereo not given)	-0.1%	>57
OCCSc1ncnc2c1oc1ccccc12	-28.8%	>57
CCN(CC)CCn1ncc2c(N)ncnc21	-1.1%[8 µM]	>57
COc1cccc(C2CC(=O)N3CN(c4ccccc4F)CSC3=C2C#N)c1 (stereo not given)	u	>57
O=C(Nc1ccc(Oc2ccc(S(=O)(=O)N3CCOCC3)cn2)cc1)c1ccco1	5.1%	>57
COc1ccc(C(=O)N2CCC3(CCCN(Cc4ccccc4)C3)CC2)cc1	u	>57
COC(=O)C1(C(O)C(=O)c2ccc(C)cc2C)CCCCC1 (stereo not given)	x	>57
Cc1cccc(-c2noc(CN(C(C)C)S(=O)(=O)c3ccc(F)cc3)n2)c1	u	>57
Cc1c(C(=O)Nc2ccccc2Cl)oc2ccc(S(=O)(=O)N3CCC4(CC3)OCCO4)cc12	-20.9%	>57
Clc1cccc(-c2nnc(SCc3nc4ccccc4[nH]3)n2Cc2ccco2)c1	x	>57
CCNc1nc(NCC)n2c(SCc3nc4ccccc4c(=O)[nH]3)nnc2n1	u	>57
Cc1cccc(Nc2nc(N)nc(CN3CCC(C)CC3)n2)c1C	10.1%	>57
CCOC(=O)CCN1C(=O)[C@H]2[C@H]3[C@H](O)[C@H](O)C/C(=N/OC[C@@H](O)COCc4ccco4)[C@H]3CC[C@@H]2C1=O	-7.1%[8 µM]	x
COc1ccc(NC(=O)N2CCCc3ccccc32)cc1	-7.3%	x
CC(C)C(c1nnnn1C1CCCC1)N(C)C1CCCCC1 (stereo not given)	u	>57
Cc1cccc(NC(=O)CC2CCC2)c1	14.9%	>57
C/C(=C\c1ccc(C(=O)O)cc1)c1ccc2c(c1)C(C)(C)CCC2(C)C	u	>57&>57
COc1cc(C2NC(=O)NC(O)(C(F)(F)F)C2C(=O)c2ccc(Cl)cc2)ccc1O (stereo not given)	-10.0%	>57
Cc1cc(=O)oc2ccc(OCC(=O)N3CCC(C)CC3)cc12	-2.3%	>57
O=C(CN(Cc1ccccc1Cl)C(=O)Cn1nnc(-c2cccs2)n1)NCC1CCCO1 (stereo not given)	-2.7%	>57
C/C=C1\C(=O)C[C@H]2[C@@H]3CCC4=CC(=O)CC[C@]4(C)[C@H]3CC[C@]12C	-1.6%	x
O=C(NCc1ccco1)c1cc(-c2ccco2)on1	-19.7%	>57
Cc1nnc(SCc2cn3ccsc3n2)n(N)c1=O	19.8%	>57
Cc1noc(NS(=O)(=O)c2ccc(NC(=O)COc3ccc(Cl)cc3Cl)cc2)c1C	u	x
COc1cccc(-c2cc(NCc3cccs3)ncn2)c1	-14.1%	>57
COC(=O)c1ccccc1S(=O)(=O)NC(=O)c1ccccc1	u	>57
CCOc1ccc(N(CC(=O)N2CCc3ccccc32)S(=O)(=O)c2c(C)noc2C)cc1	u	>57
O=C(NCC(F)(F)F)Nc1cccnc1	5.2%	>57
CC(C)(C)NC[C@@H](O)COc1cccc2[nH]c(C#N)cc12	-4.4%	>57
C[C@@]12CC[C@H]3[C@@H](CCC4=CC(=O)CC[C@]43C)[C@H]1CCC2=O	-6.8%	>57
c1ccc(C(c2nnnn2Cc2ccco2)N2CCN(C3CCCC3)CC2)cc1 (stereo not given)	u	>57
CCSc1ccccc1C(=O)Nc1cccnc1	u	>57
More records.
SMILES	Anthrax LT inh	SmPrx2 inh
Cc1cccc(Cn2c(SCCO)nc3c2c(=O)n(C)c(=O)n3C)c1	7.9%	>57
O=C(c1ccc(Cl)cc1)N1CCN(C(=O)c2ccco2)CC1	3.0%	x
Cc1onc(-c2ccccc2Cl)c1C(=O)Nc1ccccc1C(N)=O	-7.7%	>57
CCN1CCC[C@@H]1CNC(=O)c1c(OC)ccc(I)c1O	-13.2%	>57
COc1ccc(-c2cc(C(=O)Nc3c(C)nn(Cc4ccccc4Cl)c3C)no2)cc1OC	-8.9%	>57
C(#Cc1ccccc1)Cn1nnc2ccccc21	1.7%	x
CC1CCN(C(=O)CSc2ccc3nnc(-c4ccc(F)cc4)n3n2)CC1	1.8%	>57
N#Cc1cccc(-c2ccc3ncnc(NC4CCNCC4)c3c2)c1	-3.7%	>57
Cc1cc(NC(=O)c2cc(-c3cccs3)on2)nn1Cc1ccc(Cl)cc1	-21.1%	>57
Cc1cc(NC(=O)CSc2nc3ccccc3c(=O)n2C2CCCC2)no1	u	>57
Cn1c(Cn2c(=O)sc3ccccc32)nnc1SCC(=O)NCCc1ccccc1	-1.8%	>57
CCCCN(C)Cc1c(C)[nH]c2ccc(Cl)cc2c1=O	-18.2%	>57
Cc1nn(-c2ccccc2)c2[nH]c(=O)c(CNCc3ccc4c(c3)OCO4)cc12	8.4%	>57
COc1ccc2cc(C(=O)NC3CCCCC3)c(=O)oc2c1	-2.4%	>57
O=C(NCc1ccc2c(c1)OCO2)c1c[nH]c2ccc(S(=O)(=O)N3CCOCC3)cc2c1=O	u	>57
COc1ccc(Cl)cc1NC(=O)CCn1cnc2ccccc2c1=O	2.4%	>57
Cc1nc2c(C(=O)NCc3ccc4c(c3)OCO4)c[nH]n2c(=O)c1Cl	6.6%	>57
Cc1ccc(NCc2nnc(SCC(=O)N3CCCCC3)n2CC2CCCO2)c(C)c1 (stereo not given)	2.3%	>57
COc1cccc(CNc2nc3nc(C)cc(C)n3n2)c1	8.4%	>57
COc1cccc(-c2cncnc2Nc2ccc(F)cc2)c1	7.3%	>57
CCCC(=O)NCCc1cc2cc(C)c(C)cc2[nH]c1=O	-9.1%	>57
O=C(Oc1ccccc1)N1CCC2(CC1)CCN(C(c1ccccc1)c1ccccc1)CC2	u	>57
Cc1cc(C)c(C#N)c(N2CCN(Cc3ccc4c(c3)OCO4)CC2)n1	4.1%	>57
Cn1c(=O)c2[nH]c(-c3cccnc3)nc2n(C)c1=O	1.1%	>57
CCc1nc(N)c(C#N)c(-c2ccncc2)c1C	u	>57
CCOC(=O)N1CCN(c2c(-c3ccc(C)c(C)c3)c(=O)c2=O)CC1	7.5%	>57
CCOC(=O)C(C#N)C(c1cccnc1)c1c(C)[nH][nH]c1=O (stereo not given)	3.0%	>57
Cc1cc(C(=O)CSc2nnnn2C)c(C)n1-c1ccc2c(c1)OCCO2	6.6%	>57
C[C@@H](C(=O)O)c1ccc(C(=O)c2ccccc2)s1	u	>57
CCOC(=O)N1CCN(C(=O)c2ccc(CN(c3ccccc3)S(C)(=O)=O)cc2)CC1	-5.1%	x
O=C1OC2(c3ccccc3)C3CCCC2C13	0.3%	>57
CC(=O)C1C2c3ccccc3OC1(C)N=c1s/c(=C/c3cn(C)nc3C)c(=O)n12 (stereo not given)	4.7%	>57
CCCC(=O)Nc1cc(OCC)c(NC(=O)NC2CCCCC2)cc1OCC	0.7%	>57
CCc1cc(=O)oc2c(C)c(O)c(CN3CCCCC3)cc12	u	>57
COc1ccc2nc(SCC(=O)N(C)C3CCCCC3)c(C#N)cc2c1	-11.4%	>57
Cc1csc(B(O)O)c1	2.1%	x
CC1(C)CC(=O)C(CC2=C(O)CC(C)(C)CC2=O)=C(O)C1	-11.5%	>57
CCCC(c1nnnn1CCc1ccccc1)N1CCN(C(=O)c2ccco2)CC1 (stereo not given)	u	>57
CSc1nc2cc(S(=O)(=O)N3CCCCC3)ccc2s1	-12.3%[8 µM]	>57
O=C(NCCN=C1NS(=O)(=O)c2ccccc21)c1ccc2nccnc2c1	u	>57
CCOC(=O)N1CCC(NC(=O)C(C)n2c3ccccc3c3cnn(C)c(=O)c32)CC1 (stereo not given)	6.8%	>57
CCc1ccc(C(=O)Nc2nnn(CC)n2)cc1	2.2%	>57
CCOc1ccc(-c2nc3n(c(=O)c2C#N)CCCS3)cc1	2.9%	>57
COc1cc(C(c2sc3nc(C)nn3c2O)N2CCOCC2)cc(OC)c1OC (stereo not given)	2.9%	>57
C=CCOc1ccc2ccccc2c1CNc1ncn[nH]1	-11.8%	>57
CN(C)CCCOC(=O)CCc1ccccc1	-2.1%	>57
CC(C)C(C(=O)OCC(=O)c1ccc2c(c1)NC(=O)CO2)N1C(=O)c2ccccc2C1=O (stereo not given)	-9.5%	>57
Cc1cccc(NC(=O)CSc2n[nH]c(-c3ccncc3)n2)c1	1.8%	>57
Cc1ccccc1O	-4.3%	x
COc1cc(NS(=O)(=O)c2ccc(C)cc2)ccc1-n1cnnn1	-0.8%	>57
Next results:
SMILES	Anthrax LT inh	SmPrx2 inh
Cc1nn(Cc2nc(-c3cccs3)no2)c(C)c1Br	-18.2%	>57
CCOP(=S)(OCC)SCSC(C)(C)C	-3.1%	x
C#CCCCO/N=C1/C[C@@H](O)[C@@H](O)[C@@H]2[C@@H]3C(=O)N(C[C@@H]4CCCO4)C(=O)[C@H]3CC[C@@H]12	-0.8%[8 µM]	x
CCCC[N+](=O)[O-]	-20.2%	x
CN(C)c1ncc2nc(-c3ccccc3)c(=O)n(-c3ccccc3)c2n1	u	>57
O=C(Oc1ccccc1)N1CCC2(CCN(Cc3ccccc3)CC2)CC1	2.6%	>57
CCOCCCNc1nc2c(c(=O)[nH]c(=O)n2C)n1CCCc1ccccc1	-6.6%	>57
CC(c1nnc(SCC(=O)NC(=O)NCc2ccco2)n1-c1ccc(Cl)cc1)N(C)C (stereo not given)	-5.1%	>57
C=CCn1c(Cc2cccs2)nnc1SCC(=O)Nc1cccc(OC)c1	-21.0%	>57
COC(=O)c1ccccc1NC(=O)c1ccco1	2.4%	>57
O=C(Nc1ccon1)c1ccc2c(c1)OCO2	12.5%	>57
CC(=O)Nc1ccc(C)cc1NC(C)=O	x	>57
COc1ccc(-c2noc(CN3CCN(c4ccccc4)CC3)n2)cc1	u	>57
CC(NC(=O)Nc1nnc(C(F)(F)F)s1)N1C(=O)C2C3C=CC(C3)C2C1=O (stereo not given)	3.3%	>57
Cc1[nH]n(-c2ccccc2)c(=O)c1-c1ccccc1	3.0%	>57
O=C(c1ccccc1)N1CCN(Cc2ccccc2Br)CC1	2.8%	>57
C=C(C)Cn1c(CCNC(=O)CCC)nc2ccccc21	11.1%	>57
Cn1nnnc1SCC(=O)N1CCN(c2cccc(Cl)c2)CC1	-3.5%	>57
Cc1ccc2c(c1)CCCN2C(=O)c1ccc2c(c1)OCO2	-6.3%	>57
CCc1nnc(NC(=O)CCc2nc(C3=CCN(C)CC3)no2)s1	-4.4%	>57

Entries above containing a tert-butyl group, in the order listed:
SMILES	Anthrax LT inh	SmPrx2 inh
Cc1ccc(NCc2nnc(SCC(=O)N(Cc3ccccc3)C(C)(C)C)o2)c(C)c1	u	x
CC(C)(C)NC[C@@H](O)COc1cccc2[nH]c(C#N)cc12	-4.4%	>57
CCOP(=S)(OCC)SCSC(C)(C)C	-3.1%	x

Entries of single compounds, looked up by structure. Order of values: Anthrax LT inh, SmPrx2 inh
`Cc1nn(Cc2nc(-c3cccs3)no2)c(C)c1Br` is listed with -18.2%, >57
`Cc1nn(-c2ccccc2)c2[nH]c(=O)c(CNCc3ccc4c(c3)OCO4)cc12` is listed with 8.4%, >57
`CC(C)C(c1nnnn1C1CCCC1)N(C)C1CCCCC1` (stereo not given) is listed with u, >57

Further records follow.
SMILES	Anthrax LT inh	SmPrx2 inh
Cc1nc2nc3c(cn2n1)C(=O)CC(C)(C)C3	-11.4%	>57
COC(=O)[C@@]1(Cc2ccc(F)cc2)[C@@H]2[C@@H](CC(=O)[C@H]2CC(=O)C(=O)N2CCCC2)CN1C(=O)c1ccccc1	7.8%	>57
COc1ccc(-c2nnc(N)s2)cc1	-6.0%	x
Cc1cccc2cc(C#N)c(SCC(=O)N3CC(=O)Nc4ccccc43)nc12	-12.4%	>57
